Vaccinia inh: Vaccinia orthopox stage-specific inhibition; Vaccinia-infected cells, mCherry/Venus stage reporter fluorescence; stronger effect = lower value; some inactives read as strong as hits; activity change (mCherry), % (no concentration beside the values); 89,000 compounds, 0.01% hits; AID 1053133;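 active means mCherry past -33% and 40 or more points under the early reporter, replicates agreeing; inconclusive means past -33% without that gap or agreement; tested in A549 cells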;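 further: scaled between vehicle wells and reference inhibitor wells; 23 nL library stock went into each well; one replicate is shown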
Vaccinia inh Venus: recorded beside Vaccinia inh, whose call it bears; activity change (Venus), %; measured here: Venus reporter, other viral stage;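 negative = less Venus signal; first of two replicates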
Active calls of the source: *; u = inconclusive; x = no result given; & = joins results of further samples. This is a subset; count on the stated rates, not on these rows.

SMILES | Vaccinia inh | Vaccinia inh Venus
CC(C)NC(=O)N1CC2(C1)[C@H](c1ccccc1)[C@@H](CO)N2C(=O)C1CC1 | 5 | 9
C/C=C/c1ccc([C@H]2[C@@H](CO)N[C@@H]2CNC(=O)C2CC2)cc1 | -5 | -1
C[C@H]1CN([C@@H](C)CO)C(=O)c2cc(C#CCC3CCCC3)cnc2O[C@H]1CN(C)Cc1ccccn1 | -35 | -24
C[C@@H]1CN([C@@H](C)CO)C(=O)Cc2cc(NC(=O)Nc3cccc4ccccc34)ccc2O[C@@H]1CN(C)Cc1ccccc1 | -23 | -21
[N-]=[N+]=NCc1ccccc1C[C@]1(C(N)=O)N=C(c2ccc(OCCCO)cc2)O[C@H]1c1ccccc1 | -22 | -15
COc1ccc(NC(=O)N(C)C[C@H]2OCCCC[C@@H](C)Oc3ccc(N(C)C)cc3C(=O)N([C@H](C)CO)C[C@H]2C)cc1 | -3 | 0
COc1ccc2c3c([nH]c2c1)[C@H](CO)N(Cc1ccccc1Cl)CC31CN(C(C)=O)C1 | 17 | 12
Cc1ccccc1S(=O)(=O)N[C@H]1CC[C@@H](CCn2cc(-c3ccc(F)cc3)nn2)O[C@H]1CO | -16 | -14
C[C@@H]1CN([C@@H](C)CO)C(=O)Cc2cc(NC(=O)Cc3cn(C)c4ccccc34)ccc2O[C@@H]1CN(C)C(=O)Nc1ccccc1 | 13 | 13
O=S(=O)(N[C@@H]1CC[C@@H](CCn2cc(C3(O)CCCC3)nn2)O[C@H]1CO)c1ccccc1 | 9 | 12
C[C@H](CO)N1C[C@H](C)[C@H](CN(C)CC2CC2)Oc2cc(C#Cc3ccncc3)ccc2S1(=O)=O | -11 | -2
C[C@H]1CN([C@@H](C)CO)C(=O)c2cc(NC(=O)Nc3ccc(F)cc3)ccc2O[C@H]1CN(C)Cc1ccc(Cl)c(Cl)c1 | -20 | -18
C[C@H]1CN([C@@H](C)CO)C(=O)c2cc(NC(=O)CCN3CCOCC3)ccc2O[C@H]1CN(C)C(=O)Nc1ccc(F)cc1 | 12 | 16
COc1ccc(C[C@H]2CCn3cc(nn3)COC[C@H](C(C)C)NC2=O)cc1 | 13 | 8
OC[C@H]1[C@@H](c2ccc(C#Cc3ccccc3)cc2)[C@@H]2CN(Cc3cncnc3)CCCCN12 | u | x
COc1ccc(S(=O)(=O)Nc2ccc3c(c2)C(=O)N([C@@H](C)CO)C[C@@H](C)[C@H](CN(C)S(=O)(=O)c2cn(C)cn2)OCCCC[C@H](C)O3)cc1 | 27 | 20
CN(C)CC#Cc1ccc([C@H]2[C@H](CO)N3C(=O)CN(C(=O)c4ccc(F)cc4)C[C@@H]23)cc1 | 0 | -11
COc1cccc(CN2[C@@H]3CN(C(=O)c4ccncc4)c4ccccc4[C@@H]3[C@@H]2CO)c1 | 6 | -8
O=C(C[C@H]1CC[C@H]2[C@@H](COC[C@H](O)CN2Cc2cc(F)ccc2F)O1)NCc1ccc(Cl)cc1 | -35 | -28
COc1ccc(S(=O)(=O)N(C)C[C@@H]2Oc3cc(-c4cccc(F)c4)ccc3S(=O)(=O)N([C@H](C)CO)C[C@H]2C)cc1 | u | x

Rewritten with values under each structure: entries from further up
Results follow in this order: Vaccinia inh	Vaccinia inh Venus
- CC(C)NC(=O)N1CC2(C1)[C@H](c1ccccc1)[C@@H](CO)N2C(=O)C1CC1
    5	9
- C/C=C/c1ccc([C@H]2[C@@H](CO)N[C@@H]2CNC(=O)C2CC2)cc1
    -5	-1
- C[C@H]1CN([C@@H](C)CO)C(=O)c2cc(C#CCC3CCCC3)cnc2O[C@H]1CN(C)Cc1ccccn1
    -35	-24
- C[C@@H]1CN([C@@H](C)CO)C(=O)Cc2cc(NC(=O)Nc3cccc4ccccc34)ccc2O[C@@H]1CN(C)Cc1ccccc1
    -23	-21
- [N-]=[N+]=NCc1ccccc1C[C@]1(C(N)=O)N=C(c2ccc(OCCCO)cc2)O[C@H]1c1ccccc1
    -22	-15
- COc1ccc(NC(=O)N(C)C[C@H]2OCCCC[C@@H](C)Oc3ccc(N(C)C)cc3C(=O)N([C@H](C)CO)C[C@H]2C)cc1
    -3	0
- COc1ccc2c3c([nH]c2c1)[C@H](CO)N(Cc1ccccc1Cl)CC31CN(C(C)=O)C1
    17	12
- Cc1ccccc1S(=O)(=O)N[C@H]1CC[C@@H](CCn2cc(-c3ccc(F)cc3)nn2)O[C@H]1CO
    -16	-14
- C[C@@H]1CN([C@@H](C)CO)C(=O)Cc2cc(NC(=O)Cc3cn(C)c4ccccc34)ccc2O[C@@H]1CN(C)C(=O)Nc1ccccc1
    13	13
- O=S(=O)(N[C@@H]1CC[C@@H](CCn2cc(C3(O)CCCC3)nn2)O[C@H]1CO)c1ccccc1
    9	12

Continuation.
SMILES | Vaccinia inh | Vaccinia inh Venus
CCCNC(=O)N1C[C@@H](O)COC[C@@H]2O[C@H](CC(=O)O)CC[C@H]21 | 5 | 11
COc1cccc(S(=O)(=O)Nc2ccc3c(c2)[C@@H]2C[C@H](CC(=O)NCC(F)(F)F)O[C@@H](CO)[C@@H]2O3)c1 | 0 | 10
CCCNC(=O)[C@@H]1[C@@H](CO)[C@@H]2Cn3c(cccc3=O)[C@@H]2N1C(=O)C1CCCC1 | 16 | 9
COCC(=O)N(C)C[C@@H]1Oc2cc(-c3ccc(F)cc3)ccc2S(=O)(=O)N([C@H](C)CO)C[C@@H]1C | -2 | 1
C[C@H](CO)N1C[C@H](C)[C@@H](CN(C)Cc2ccc(C(=O)O)cc2)Oc2ccc(NC(=O)Cn3cnnn3)cc2CC1=O | 6 | 8
O=C(C[C@H]1C=C[C@H](NC(=O)C2CC2)[C@H](CO)O1)Nc1nccs1 | -8 | -2
CCCNC(=O)[C@H]1[C@H](CO)[C@H]2Cn3c(ccc(-c4ccccc4OC)c3=O)[C@H]2N1S(C)(=O)=O | 5 | -4
C[C@@H]1CN([C@H](C)CO)C(=O)Cc2cc(NS(=O)(=O)c3ccccc3)ccc2O[C@H]1CN(C)Cc1ccccc1 | -12 | -6
COc1ccccc1NC(=O)N(C)C[C@H]1OCc2ccccc2-c2c(n(C)c3ccccc23)C(=O)N([C@H](C)CO)C[C@@H]1C | u | x
CC(C)NC(=O)N[C@H]1CC[C@H](CCNC(=O)C2CCOCC2)O[C@H]1CO | 27 | 20
CN1CCN(C(=O)C[C@H]2CC[C@@H]3[C@H](COC[C@@H](O)CN3C(=O)Nc3ccc4c(c3)OCO4)O2)CC1 | 5 | 22
O=C(C1CCOCC1)N1C[C@@H]2[C@H](c3ccccc31)[C@H](CO)N2C(=O)c1ccccc1 | 7 | 2
O=C(Nc1ccccc1)[C@@H]1[C@@H](CO)[C@@H]2Cn3c(cccc3=O)[C@@H]2N1CC1CC1 | 12 | 8
O=C(C[C@@H]1C[C@H]2c3cc(NC(=O)Nc4ccc(F)cc4)ccc3O[C@H]2[C@H](CO)O1)NC1CCCC1 | 11 | 7
CCC(=O)N(C)C[C@@H]1Oc2cc(C#CC3CCCC3)ccc2S(=O)(=O)N([C@@H](C)CO)C[C@@H]1C | -26 | -20
O=C(Cc1ccccn1)N1CC(=O)N2[C@H](C1)[C@H](c1ccc(C#CC3CC3)cc1)[C@@H]2CO | 4 | 1
COc1ccc(NC(=O)N(C)C[C@@H]2Oc3c(NS(=O)(=O)c4ccc(C)cc4)cccc3C(=O)N([C@@H](C)CO)C[C@H]2C)cc1 | 6 | 1
O=C(CN1CCOCC1)N[C@H]1CC[C@H](CCNC(=O)C2CCCCC2)O[C@H]1CO | -3 | -2
C[C@@H]1CN([C@H](C)CO)C(=O)Cc2cc(NC(=O)CCCN(C)C)ccc2O[C@H]1CN(C)CC1CCCCC1 | -4 | -1
C[C@H](CO)N1C[C@H](C)[C@@H](CN(C)S(=O)(=O)c2ccc(Oc3ccccc3)cc2)OCc2cnnn2CCCC1=O | -20&-10 | -16&-11
COc1ccc2c3c([nH]c2c1)[C@H](CO)N(Cc1ccccc1F)CC31CN(C(=O)C2CCCC2)C1 | -4 | 4
CN1CCN(C(=O)C[C@H]2CC[C@@H]3[C@H](COC[C@@H](O)CN3C(=O)Nc3ccc(Cl)cc3)O2)CC1 | -3 | -2
C[C@H]1CN([C@@H](C)CO)C(=O)c2cc(/C=C/c3ccccc3)cnc2O[C@@H]1CN(C)Cc1cccc(C(=O)O)c1 | 21 | 11
C[C@H]1CN([C@@H](C)CO)C(=O)Cc2cc(NC(=O)C3CC3)ccc2O[C@H]1CN(C)S(=O)(=O)c1cn(C)cn1 | 16 | 9
C[C@H]1CN([C@@H](C)CO)C(=O)CCCn2nncc2CO[C@@H]1CN(C)S(=O)(=O)c1ccc(C#N)cc1 | 22 | 12
C[C@H]1CN([C@@H](C)CO)C(=O)c2cc(C#CCC3CCCC3)cnc2O[C@@H]1CN(C)C(=O)CN(C)C | -20 | -9
Fc1cccc(CN2[C@@H]3CNC[C@H]2C3c2ccc(-c3ccncc3)cc2)c1 (stereo not given in full) | u | 8
C[C@@H]1CN([C@H](C)CO)C(=O)c2cccc(N(C)C)c2O[C@@H]1CN(C)C(=O)NC1CCCCC1 | 16 | -5
C[C@@H]1CCCCO[C@H](CN(C)C(=O)CCC(F)(F)F)[C@H](C)CN([C@@H](C)CO)C(=O)c2cc(N(C)C)ccc2O1 | 2 | 1
C[C@H]1CN([C@@H](C)CO)C(=O)c2cc(NC(=O)Nc3cccc4ccccc34)ccc2O[C@@H]1CN(C)S(C)(=O)=O | 19 | 3
CNC[C@H]1Oc2cc(C#Cc3ccccc3F)ccc2S(=O)(=O)N([C@H](C)CO)C[C@@H]1C | -12 | -1
CC(C)c1cn(CC[C@@H]2CC[C@@H](NS(=O)(=O)Cc3ccccc3)[C@@H](CO)O2)nn1 | -12 | -6
CN(C)CC(=O)Nc1ccc2c(c1)[C@H]1C[C@@H](CC(=O)NCc3ccc(-c4ccccc4)cc3)O[C@H](CO)[C@H]1O2 | u | x
CN1c2ccc(Br)cc2[C@H]2NCC[C@H]2[C@H]1CO | 10 | 15
C[C@H]1CN([C@@H](C)CO)C(=O)Cc2cc(NC(=O)CCCCCC(=O)Nc3ccccc3N)ccc2O[C@@H]1CN(C)S(=O)(=O)c1ccc(F)cc1 | 5 | 4
C[C@H](CO)N1C[C@H](C)[C@@H](CN(C)Cc2ccncc2)Oc2ccc(NS(=O)(=O)c3cccs3)cc2C1=O | 15 | 16
C[C@@H]1CN([C@@H](C)CO)C(=O)c2c(c3ccccc3n2C)-c2ccccc2CO[C@H]1CN(C)C(=O)Nc1ccc2c(c1)OCO2 | u | x
CN1C(=O)c2cc(NC(=O)c3cnccn3)ccc2OC[C@@H]2O[C@H](CC(=O)N[C@H]3CCN(Cc4ccccc4)C3)CC[C@@H]21 | -11 | -17
C[C@@H]1CCCCO[C@@H](CN(C)Cc2ccccc2)[C@H](C)CN([C@@H](C)CO)C(=O)c2cc(NS(=O)(=O)c3ccccc3)ccc2O1 | u | x
COc1ccc(S(=O)(=O)N(C)C[C@@H]2Oc3c(NC(=O)Nc4ccc5c(c4)OCO5)cccc3C(=O)N([C@H](C)CO)C[C@H]2C)cc1 | 3 | -1
O=C(C[C@@H]1C=C[C@H](NC(=O)Cc2ccccn2)[C@H](CO)O1)NCCc1ccncc1 | 0 | -2
C[C@@H]1CCCCO[C@H](CN(C)Cc2ccncc2)[C@@H](C)CN([C@H](C)CO)C(=O)c2cc(NC(=O)c3ccncc3)ccc2O1 | 12 | -1
C[C@H](CO)N1C[C@H](C)[C@@H](CN(C)Cc2ccccc2)Oc2ccc(NC(=O)C3CC3)cc2C1=O | 3 | 3
C[C@H](CO)N1C[C@H](C)[C@@H](CN(C)Cc2ccc(-c3ccccc3)cc2)Oc2ccc(NC(=O)Cn3cnnn3)cc2CC1=O | 7 | 5
C[C@@H]1CN([C@H](C)CO)S(=O)(=O)c2ccc(-c3cncnc3)cc2O[C@@H]1CN(C)C | 22 | 8
C[C@H](CO)N1C[C@H](C)[C@@H](CN(C)C(=O)Nc2cccc3ccccc23)OCCCC[C@H](C)Oc2ccc(NC(=O)C3CCCCC3)cc2C1=O | 22 | 12
C[C@H](CO)N1C[C@H](C)[C@@H](CN(C)S(=O)(=O)c2cccs2)Oc2c(NC(=O)Nc3ccc4c(c3)OCO4)cccc2C1=O | 26 | 14
COC(=O)[C@@H]1[C@@H](CO)[C@@H]2Cn3c(ccc(-c4ccccc4)c3=O)[C@@H]2N1Cc1ccccc1F | 4 | 10
CO[C@H](CN(C)C(=O)c1cnccn1)[C@H](C)CN([C@H](C)CO)S(=O)(=O)c1ccc(Cl)cc1 | 9 | 6
CO[C@@H]1CN(C)C(=O)c2cc(NS(=O)(=O)c3ccccc3)ccc2OC[C@@H](C)N(Cc2nccs2)C[C@@H]1C | -8 | 2
COc1ccc2c3c([nH]c2c1)[C@H](CO)N(Cc1nccs1)CC31CN(Cc2ccncc2)C1 | -5 | -5
Cc1ccc(S(=O)(=O)N(C)C[C@@H]2Oc3c(NS(C)(=O)=O)cccc3C(=O)N([C@H](C)CO)C[C@H]2C)cc1 | 1 | -2
COc1ccc2c3c([nH]c2c1)[C@@H](CO)N(C(=O)c1ccccc1)CC31CN(C(=O)Nc2cccc(F)c2)C1 | -18 | -12
COCC(=O)N[C@@H]1CC[C@@H](CC(=O)NCc2ccc(Cl)cc2)O[C@H]1CO | 20 | 14
CCNC(=O)[C@@H]1[C@@H](CO)[C@@H]2Cn3c(ccc(-c4cccc(C(=O)N(C)C)c4)c3=O)[C@H]1N2 | 9 | 11
C[C@H]1CN([C@@H](C)CO)S(=O)(=O)c2ccc(-c3cccc(F)c3)cc2O[C@H]1CN(C)C(=O)c1cccc(F)c1 | -28 | -27
CCCNC(=O)Nc1ccc2c(c1)OC[C@@H](C)N(C(=O)C1CCC1)C[C@H](C)[C@H](OC)CN(C)C2=O | 2 | 11
C[C@@H]1CN([C@H](C)CO)C(=O)c2cc(C#CC3CC3)cnc2O[C@H]1CN(C)C(=O)c1ccccc1 | 18 | 7
C[C@H](CO)N1C[C@H](C)[C@@H](CN(C)C(=O)Nc2ccccc2)Oc2c(NC(=O)c3ccncc3)cccc2C1=O | 24 | 10
